High-throughput results deposited in PubChem BioAssay by Broad Institute.
A1 apoptosis 2: compounds inhibiting A1, read as caspase activation; caspase activation, % (test concentration not listed); 24,000 tested, under 10 active; MEF A1-2A-BIM cells, caspase-Glo luminescence, 3 h; percent of clofoctol response, DMSO zero; in the data active = caspase activation above about 5.9%;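 also: wells of about 30 µL received 50 nL stock; the first replicate is given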
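Evaluation: Caspase-3/7 activity from luminescence increase | Assay system: A1-2A-BIM mouse embryonic fibroblasts | Quantity: 2500 MEF cells/well | Medium: RPMI-1640 plus 10% FBS | Detection: Caspase-Glo 3/7 luminescence, 1 h at room temperature | Dosing: 50 nL compound per well, pinned | Timing: Cells settled overnight, compound exposure 3 h at 37 °C, 5% CO2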
Starred values were filed as active, the others as inactive.

SMILES | A1 apoptosis 2
Cc1ccc(S(=O)(=O)Nc2cccc3c2O[C@@H](CN(C)C(=O)NC2CCCCC2)[C@@H](C)CN([C@@H](C)CO)C3=O)cc1 | 0.9
C[C@@H]1CCCCO[C@H](CN(C)C(=O)C2CCCCC2)[C@H](C)CN([C@@H](C)CO)C(=O)c2cc(NC(=O)CCCN(C)C)ccc2O1 | -0.4
O=C(O)CCCCCC(=O)N/N=C/c1ccoc1 | 0.4
CCCN(C)C[C@H]1OCCCC[C@@H](C)Oc2ccc(NS(=O)(=O)c3ccc(OC)cc3)cc2C(=O)N([C@H](C)CO)C[C@H]1C | -0.4
COc1ccc(NC(=O)Nc2ccc3c(c2)CC(=O)N([C@@H](C)CO)C[C@@H](C)[C@@H](CN(C)C(=O)Nc2ccccc2)O3)cc1 | -0.3
CC(C)NC(=O)N(C)C[C@H]1Oc2ccc(NC(=O)C3CCCCC3)cc2CC(=O)N([C@H](C)CO)C[C@H]1C | 0.3
C[C@H](CO)N1C[C@H](C)[C@@H](CN(C)S(=O)(=O)c2ccc(F)cc2)Oc2ccc(NS(=O)(=O)c3ccc(Cl)cc3)cc2CC1=O | 0.6
C[C@@H]1CN([C@@H](C)CO)C(=O)c2cc(NC(=O)c3ccccc3)ccc2O[C@@H](C)CCCCO[C@H]1CN(C)S(=O)(=O)c1ccccc1 | -0.9
Cc1noc(C)c1NC(=O)Nc1cccc2c1O[C@H](CN(C)Cc1ccc(C(F)(F)F)cc1)[C@H](C)CN([C@@H](C)CO)C2=O | 1.4
C[C@@H]1CN([C@H](C)CO)C(=O)Cc2cc(NC(=O)CCN3CCOCC3)ccc2O[C@H]1CN(C)C(=O)Nc1cccc2ccccc12 | 0.2
C[C@H](CO)N1C[C@H](C)[C@H](CN(C)C(=O)Nc2ccc(C(F)(F)F)cc2)OCCCC[C@H](C)Oc2ccc(NC(=O)C3CCCCC3)cc2C1=O | -0.9
C[C@H]1CN([C@@H](C)CO)C(=O)c2cccc(NC(=O)CCCCCC(=O)Nc3ccccc3N)c2O[C@@H]1CN(C)C(=O)Nc1ccc2c(c1)OCO2 | -0.2
C[C@@H]1CN([C@H](C)CO)C(=O)c2cc(NC(=O)c3ccncc3)ccc2O[C@@H]1CN(C)C(=O)Nc1ccc(F)cc1 | -1.2
C[C@@H]1CN([C@@H](C)CO)C(=O)c2cc(NC(=O)Nc3ccccc3)ccc2O[C@@H]1CN(C)S(=O)(=O)c1ccccc1 | -0.2
C[C@H]1CN([C@@H](C)CO)C(=O)c2cc(NC(=O)CCCN(C)C)ccc2O[C@@H]1CN(C)Cc1ccc2c(c1)OCO2 | 0.3
C[C@H]1CCCCO[C@H](CN(C)C(=O)c2ccccc2)[C@@H](C)CN([C@@H](C)CO)C(=O)c2cc(NC(=O)Nc3ccc(F)cc3)ccc2O1 | 0.7
C[C@@H]1CCCCO[C@@H](CN(C)S(=O)(=O)c2ccc(Cl)cc2)[C@H](C)CN([C@@H](C)CO)C(=O)c2cc(NC(=O)Nc3ccc4c(c3)OCO4)ccc2O1 | 0.5
C[C@@H]1CCCCO[C@@H](CN(C)C(=O)CCCN(C)C)[C@H](C)CN([C@@H](C)CO)C(=O)c2cc(NC(=O)c3ccncc3)ccc2O1 | -1.2
C[C@@H]1CCCCO[C@H](CN(C)S(=O)(=O)c2ccccc2)[C@H](C)CN([C@H](C)CO)C(=O)c2cc(NC(=O)Nc3cccc4ccccc34)ccc2O1 | -0.6
COc1ccc(NC(=O)N(C)C[C@H]2Oc3c(NS(=O)(=O)c4cccs4)cccc3C(=O)N([C@@H](C)CO)C[C@@H]2C)cc1 | 0.2
CC(C)NC(=O)N(C)C[C@@H]1OCCCC[C@@H](C)Oc2ccc(NC(=O)CCC(F)(F)F)cc2C(=O)N([C@H](C)CO)C[C@@H]1C | 1.5
Cc1ccc(S(=O)(=O)Nc2ccc3c(c2)C(=O)N([C@@H](C)CO)C[C@@H](C)[C@@H](CN(C)Cc2ccc(C(=O)O)cc2)O3)cc1 | 1.0
C[C@@H]1CN([C@H](C)CO)C(=O)c2cccc(NC(=O)c3nc4ccccc4s3)c2O[C@@H]1CN(C)CC1CC1 | -0.1
CC(C)NC(=O)N(C)C[C@H]1Oc2ccc(NC(=O)C3CC3)cc2CC(=O)N([C@H](C)CO)C[C@@H]1C | 1.0
C[C@H](CO)N1C[C@H](C)[C@@H](CN(C)C(=O)Nc2ccc3c(c2)OCO3)OCCCC[C@H](C)Oc2ccc(NC(=O)Nc3ccc4c(c3)OCO4)cc2C1=O | 0.5
C[C@H]1CN([C@@H](C)CO)C(=O)Cc2cc(NS(=O)(=O)c3cn(C)cn3)ccc2O[C@H]1CN(C)Cc1ccccc1 | 1.1
Cc1noc(C)c1NC(=O)Nc1ccc2c(c1)CC(=O)N([C@H](C)CO)C[C@@H](C)[C@H](CN(C)Cc1ccncc1)O2 | -1.2
C[C@@H]1CN([C@H](C)CO)C(=O)c2cc(NC(=O)Cc3cn(C)c4ccccc34)ccc2O[C@H]1CN(C)Cc1ccncc1 | 1.8
COc1ccc(NC(=O)Nc2ccc3c(c2)C(=O)N([C@H](C)CO)C[C@H](C)[C@@H](CN(C)C(=O)C2CCCCC2)OCCCC[C@H](C)O3)cc1 | 0.7
CC(C)NC(=O)N(C)C[C@H]1Oc2c(NS(=O)(=O)c3ccc(F)cc3)cccc2C(=O)N([C@@H](C)CO)C[C@@H]1C | 1.4
CCOc1ccc(N2C(=O)CSC2c2cccc([N+](=O)[O-])c2)cc1 (stereo unspecified) | -0.4
C[C@@H]1CN([C@@H](C)CO)C(=O)Cc2cc(NS(=O)(=O)c3ccccc3)ccc2O[C@@H]1CN(C)C | 1.0
C[C@@H]1CN([C@@H](C)CO)C(=O)c2cc(NC(=O)Nc3ccc4c(c3)OCO4)ccc2O[C@@H]1CN(C)Cc1ccc(-c2ccccc2)cc1 | -1.2
COc1ccc(CN(C)C[C@H]2Oc3c(NC(=O)Nc4ccc(OC)cc4)cccc3C(=O)N([C@H](C)CO)C[C@H]2C)cc1 | -0.5
COc1ccc(NC(=O)N(C)C[C@@H]2Oc3ccc(NC(=O)Cc4ccccc4)cc3CC(=O)N([C@@H](C)CO)C[C@@H]2C)cc1 | 0.5
CC(C)NC(=O)N(C)C[C@H]1Oc2ccc(N(C)C)cc2CC(=O)N([C@H](C)CO)C[C@@H]1C | 0.2

Two records picked at random from those above, as already listed:
SMILES | A1 apoptosis 2
CC(C)NC(=O)N(C)C[C@H]1Oc2ccc(NC(=O)C3CC3)cc2CC(=O)N([C@H](C)CO)C[C@@H]1C | 1.0
C[C@H](CO)N1C[C@H](C)[C@@H](CN(C)S(=O)(=O)c2ccc(F)cc2)Oc2ccc(NS(=O)(=O)c3ccc(Cl)cc3)cc2CC1=O | 0.6

Next part
SMILES | A1 apoptosis 2
C[C@@H]1CN([C@@H](C)CO)C(=O)c2cc(NC(=O)c3ccncc3)ccc2O[C@H]1CN(C)S(=O)(=O)c1cccs1 | 0.8
COC(=O)CCCCCCC(=O)N/N=C/c1ccc(Oc2ccccc2)cc1 | -2.1
COc1ccc(S(=O)(=O)N(C)C[C@H]2OCCCC[C@H](C)Oc3ccc(NS(=O)(=O)c4cn(C)cn4)cc3C(=O)N([C@@H](C)CO)C[C@@H]2C)cc1 | -0.6
Cc1ccc(S(=O)(=O)Nc2ccc3c(c2)C(=O)N([C@@H](C)CO)C[C@H](C)[C@H](CN(C)CC2CCCCC2)O3)cc1 | -0.7
COC(=O)c1c2oc(c1C(=O)OC)C(=O)N[C@@H](Cc1ccccc1)Cn1cc(nn1)CNC(=O)[C@H](Cc1ccccc1)NC(=O)N[C@@H](CO)CC2 | -0.5
C[C@@H]1CCCCO[C@H](CN(C)C(=O)c2ccncc2)[C@H](C)CN([C@H](C)CO)C(=O)c2cc(N(C)C)ccc2O1 | -0.9
C[C@@H]1CN([C@@H](C)CO)C(=O)c2cc(NS(=O)(=O)c3ccccc3)ccc2O[C@H]1CN(C)S(=O)(=O)c1ccccc1 | -1.9
C[C@@H]1CCCCO[C@@H](CN(C)C(=O)CCCN(C)C)[C@@H](C)CN([C@H](C)CO)C(=O)c2cc(NS(=O)(=O)c3cccs3)ccc2O1 | -0.6
Cc1ccsc1/C=N/NC(=O)CCCCCCC(=O)NO | -0.3
COc1ccc(S(=O)(=O)Nc2cccc3c2O[C@@H](CN(C)C(=O)Nc2cccc4ccccc24)[C@H](C)CN([C@@H](C)CO)C3=O)cc1 | -1.4
Cc1ccc(S(=O)(=O)Nc2cccc3c2O[C@@H](CN(C)Cc2ccc(Oc4ccccc4)cc2)[C@@H](C)CN([C@@H](C)CO)C3=O)cc1 | 0.3
C[C@@H]1CN([C@H](C)CO)C(=O)c2cc(NC(=O)Nc3ccc(F)cc3)ccc2O[C@@H](C)CCCCO[C@H]1CN(C)Cc1ccc2c(c1)OCO2 | 1.7
C[C@@H]1CN([C@@H](C)CO)C(=O)c2cccc(NC(=O)Nc3ccc(F)cc3)c2O[C@H]1CN(C)C(=O)Nc1ccc(F)cc1 | -0.1
C[C@@H]1CCCCO[C@@H](CN(C)Cc2ccccc2)[C@H](C)CN([C@H](C)CO)C(=O)c2cc(NS(=O)(=O)c3cccs3)ccc2O1 | -1.3
Cc1noc(C)c1NC(=O)Nc1ccc2c(c1)CC(=O)N([C@@H](C)CO)C[C@H](C)[C@@H](CN(C)Cc1ccncc1)O2 | 1.7
C[C@H]1CN([C@@H](C)CO)C(=O)c2cc(NC(=O)Cc3ccccc3)ccc2O[C@H]1CN(C)Cc1ccc(C(=O)O)cc1 | -0.7
C[C@@H]1CN([C@@H](C)CO)C(=O)c2cc(NC(=O)Nc3ccc(C(F)(F)F)cc3)ccc2O[C@H]1CN(C)Cc1ccc(Oc2ccccc2)cc1 | -1.3
C[C@@H]1CCCCO[C@H](CN(C)Cc2ccccc2)[C@H](C)CN([C@H](C)CO)C(=O)c2cc(NS(=O)(=O)c3cccs3)ccc2O1 | -0.1
C[C@@H]1CCCCO[C@H](CN(C)C)[C@@H](C)CN([C@@H](C)CO)C(=O)c2cc(NC(=O)C3CCCCC3)ccc2O1 | 1.8
C[C@H](CO)N1C[C@H](C)[C@@H](CN(C)S(=O)(=O)c2ccc(Cl)cc2)Oc2ccc(NC(=O)Cc3cn(C)c4ccccc34)cc2C1=O | -1.0
O=C(C1=C[C@H](c2ccc3c(c2)Cc2ccccc2-3)C[C@H](OCc2ccc(CO)cc2)O1)N1CCCCC1 | 1.5
C[C@H](CO)N1C[C@H](C)[C@H](CN(C)C(=O)Nc2ccc3c(c2)OCO3)Oc2ncc(C#Cc3cccc(F)c3)cc2C1=O | -1.3
CNC[C@H]1Oc2ccc(NC(=O)C3CC3)cc2C(=O)N([C@@H](C)CO)C[C@@H]1C | -0.8
Cc1noc(C)c1NC(=O)N(C)C[C@@H]1Oc2c(NC(=O)c3ccc(-c4nccs4)cc3)cccc2C(=O)N([C@@H](C)CO)C[C@H]1C | 0.7
C[C@H](CO)N1C[C@H](C)[C@H](CN(C)Cc2ccc(Cl)c(Cl)c2)Oc2ccc(NC(=O)Cn3cnnn3)cc2C1=O | 0.5
Cc1ccc(S(=O)(=O)N(C)C[C@@H]2Oc3c(cccc3N(C)C)C(=O)N([C@@H](C)CO)C[C@H]2C)cc1 | 1.2
C[C@H](CO)N1C[C@H](C)[C@@H](CN(C)CC2CC2)Oc2c(NS(=O)(=O)c3ccccc3)cccc2C1=O | -0.8
COc1ccc(S(=O)(=O)Nc2ccc3c(c2)CC(=O)N([C@H](C)CO)C[C@@H](C)[C@@H](CN(C)C(=O)Nc2c(C)noc2C)O3)cc1 | 0.4
C[C@@H]1CCCCO[C@H](CN(C)C(=O)CCCN(C)C)[C@@H](C)CN([C@H](C)CO)C(=O)c2cc(NC(=O)Nc3ccc(F)cc3)ccc2O1 | -0.3
C[C@H]1CN([C@@H](C)CO)C(=O)Cc2cc(NS(=O)(=O)c3cccs3)ccc2O[C@@H]1CN(C)S(=O)(=O)c1ccc(Cl)cc1 | -1.7
C[C@@H]1CCCCO[C@H](CN(C)Cc2ccc(Cl)c(Cl)c2)[C@@H](C)CN([C@@H](C)CO)C(=O)c2cc(NS(=O)(=O)c3ccc(Cl)cc3)ccc2O1 | 1.3
C[C@@H]1CN([C@H](C)CO)C(=O)c2cccc(NS(=O)(=O)c3ccc(Cl)cc3)c2O[C@@H]1CN(C)S(=O)(=O)c1cn(C)cn1 | -1.0
C[C@@H]1CN([C@H](C)CO)C(=O)c2cc(NC(=O)Cc3ccccc3)ccc2O[C@@H](C)CCCCO[C@@H]1CN(C)C(=O)C1CCCCC1 | 1.3
C[C@H](CO)N1C[C@H](C)[C@H](CN(C)C(=O)NC2CCCCC2)Oc2ccc(NC(=O)CCN3CCOCC3)cc2C1=O | -1.0
COc1ccc(NC(=O)N(C)C[C@H]2Oc3ccc(NC(=O)Nc4ccccc4)cc3CC(=O)N([C@@H](C)CO)C[C@@H]2C)cc1 | 0.0

Taken from above.
Value of C[C@H](CO)N1C[C@H](C)[C@H](CN(C)C(=O)NC2CCCCC2)Oc2ccc(NC(=O)CCN3CCOCC3)cc2C1=O in A1 apoptosis 2: -1.0
Value of C[C@@H]1CCCCO[C@H](CN(C)Cc2ccc(Cl)c(Cl)c2)[C@@H](C)CN([C@@H](C)CO)C(=O)c2cc(NS(=O)(=O)c3ccc(Cl)cc3)ccc2O1 in A1 apoptosis 2: 1.3
Value of COc1ccc(S(=O)(=O)Nc2ccc3c(c2)CC(=O)N([C@H](C)CO)C[C@@H](C)[C@@H](CN(C)C(=O)Nc2c(C)noc2C)O3)cc1 in A1 apoptosis 2: 0.4
Value of C[C@@H]1CCCCO[C@H](CN(C)C(=O)CCCN(C)C)[C@@H](C)CN([C@H](C)CO)C(=O)c2cc(NC(=O)Nc3ccc(F)cc3)ccc2O1 in A1 apoptosis 2: -0.3
Value of C[C@@H]1CN([C@H](C)CO)C(=O)c2cc(NC(=O)Cc3ccccc3)ccc2O[C@@H](C)CCCCO[C@@H]1CN(C)C(=O)C1CCCCC1 in A1 apoptosis 2: 1.3

These rows are one share of the data. The share of hits here may be higher or lower than overall.
